Compound activity deposited in PubChem BioAssay by Johns Hopkins Ion Channel Center.
KCNQ2 pot: KCNQ2 (rat) channel potentiation; O88943; CHO-K1 KCNQ2, FluxOR thallium flux fluorescence; hits give high values; 310,000 tested, 0.54% active; B-score at 10 µM;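 active = fluorescence ratio B-score at least 3 SD of library B-scores, with initial fluorescence B-score within 3 SD, cut at about 5.3 in these data; same plate scores as AID 2156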;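 also: B-score of peak minus minimum over baseline fluorescence ratio after K+ and Tl+ stimulus; positive B-score means potentiation of KCNQ2 with more thallium influx and brighter signal; only the inactives scoring about 0 or higher are listed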
Target sequence (O88943 whole entry, looked up): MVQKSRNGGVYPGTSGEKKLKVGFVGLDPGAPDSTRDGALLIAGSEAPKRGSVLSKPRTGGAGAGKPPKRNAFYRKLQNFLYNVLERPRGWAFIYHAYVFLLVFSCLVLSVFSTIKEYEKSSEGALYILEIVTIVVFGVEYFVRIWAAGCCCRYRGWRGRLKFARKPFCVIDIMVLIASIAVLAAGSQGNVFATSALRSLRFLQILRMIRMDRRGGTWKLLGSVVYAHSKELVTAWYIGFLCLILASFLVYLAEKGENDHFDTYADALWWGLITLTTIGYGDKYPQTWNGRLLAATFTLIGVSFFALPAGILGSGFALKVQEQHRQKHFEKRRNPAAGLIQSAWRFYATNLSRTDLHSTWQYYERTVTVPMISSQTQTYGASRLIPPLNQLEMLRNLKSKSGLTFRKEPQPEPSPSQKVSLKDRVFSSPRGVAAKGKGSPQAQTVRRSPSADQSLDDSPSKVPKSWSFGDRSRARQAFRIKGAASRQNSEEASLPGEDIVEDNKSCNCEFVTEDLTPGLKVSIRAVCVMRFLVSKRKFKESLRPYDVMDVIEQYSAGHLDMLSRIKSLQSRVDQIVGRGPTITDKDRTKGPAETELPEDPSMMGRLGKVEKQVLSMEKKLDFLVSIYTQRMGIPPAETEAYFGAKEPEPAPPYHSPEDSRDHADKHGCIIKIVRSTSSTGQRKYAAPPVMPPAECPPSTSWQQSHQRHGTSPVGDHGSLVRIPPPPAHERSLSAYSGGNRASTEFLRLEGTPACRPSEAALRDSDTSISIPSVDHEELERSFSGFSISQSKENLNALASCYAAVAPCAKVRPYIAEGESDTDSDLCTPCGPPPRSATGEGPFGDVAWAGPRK
KCNQ2 pot baseline: further read-out of KCNQ2 pot, marked with its call; B-score; compound at 10 µM; measured here: initial fluorescence intensity artifact check;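 brightness before thallium and not channel activity; 0 = typical well and far values either way flag optical interference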
* marks the source's active call; other numbers are inactive results; & = joins results of further samples. The list is partial; the hit share may differ from the screen's.

KCNQ2 pot	KCNQ2 pot baseline	SMILES
0.02	-1.8	COc1ccccc1CCNC(=O)c1cccc(S(=O)(=O)NCc2ccccc2)c1
1.2	-0.01	Cc1cc(OC(C)C(=O)NCC2CCCO2)cc(C)c1Cl (stereo not drawn)
0.38	-3.5	O=C(Nc1ccc(Cl)cn1)Nc1ccccc1F
0.17	1.8	CCOC(=O)N1CCN(S(=O)(=O)c2ccc(C(=O)Nc3sc4c(c3C(N)=O)CC(C)(C)NC4(C)C)cc2)CC1
1.6	0.09	C/C(=N\NC(=O)C1CCCN(S(=O)(=O)c2ccccc2)C1)c1ccncc1 (stereo not drawn)
2.8	0.05	COC(=O)c1ccc(C)c(NC(=O)Cn2cnc3ccccc3c2=O)c1
0.02	-0.56	CS(=O)(=O)Nc1ccc(N2CCCCC2)c(Cl)c1
0.1	-1.4	O=C(COC(=O)c1n[nH]c2ccccc12)NCc1ccccc1
0.4	0.24	C=CCNC(=O)/C(C#N)=C/c1ccc(C(=O)O)cc1
0.04	-1.8	CCCCn1c2ccc(C)cc2c2nnc(SCCN3CCCCC3)nc21
0.2	0.02	C#CCNC(=O)C1=C[C@@H](c2csc3ccccc23)C[C@@H](OCc2ccc(CO)cc2)O1
0.1	-0.27	COc1ccc(CCNC(=O)CNCCc2ccc(F)cc2)cc1
2.8	0.21	O=C(Nc1cc(F)ccc1F)C1CCN(S(=O)(=O)c2cccc3nonc23)CC1
0.26	-0.91	COCCCNC(=S)N/N=C/c1ccc(O)cc1
0.03	0.23	CCN(CC)S(=O)(=O)c1cccc2nsnc12
1.1	0.04	O=C(NCc1ccccc1F)c1ccncc1
0.82	-0.03	CCN(CC)CCNC(=O)CS(=O)Cc1nc(-c2ccccc2Cl)oc1C (stereo not drawn)
0.14	0.29	COCCn1c(=NC(=O)CSCC(=O)N2CCOCC2)sc2cc(C)ccc21
1.8	1.5	CCc1ccccc1N1CN(Cc2cccnc2)CNC1=S
5.8*	0.89*	O=C(Nc1nc(=O)c2ccccc2s1)c1ccc(F)cc1
0.46	-0.64	O=C(NCCc1c[nH]c2ccccc12)C1CCCN(S(=O)(=O)c2ccccc2)C1 (stereo not drawn)
0.77	-0.02	Nc1ccc(-c2nc3c(Cl)cc(N)cc3[nH]2)cc1
1.7	-1.3	O=C(Nc1ccccc1)c1ccc(NCCN2CCOCC2)c(S(=O)(=O)N2CCOCC2)c1
2	1.2	CC(C)c1ccc(NC(=O)C2=NNC(=O)CC2)cc1

Given with values under each structure: 15 of the compounds above
Value order – KCNQ2 pot | KCNQ2 pot baseline
CS(=O)(=O)Nc1ccc(N2CCCCC2)c(Cl)c1
    0.02 | -0.56
O=C(COC(=O)c1n[nH]c2ccccc12)NCc1ccccc1
    0.1 | -1.4
C=CCNC(=O)/C(C#N)=C/c1ccc(C(=O)O)cc1
    0.4 | 0.24
CCCCn1c2ccc(C)cc2c2nnc(SCCN3CCCCC3)nc21
    0.04 | -1.8
C#CCNC(=O)C1=C[C@@H](c2csc3ccccc23)C[C@@H](OCc2ccc(CO)cc2)O1
    0.2 | 0.02
COc1ccc(CCNC(=O)CNCCc2ccc(F)cc2)cc1
    0.1 | -0.27
O=C(Nc1cc(F)ccc1F)C1CCN(S(=O)(=O)c2cccc3nonc23)CC1
    2.8 | 0.21
COCCCNC(=S)N/N=C/c1ccc(O)cc1
    0.26 | -0.91
CCN(CC)S(=O)(=O)c1cccc2nsnc12
    0.03 | 0.23
O=C(NCc1ccccc1F)c1ccncc1
    1.1 | 0.04
CCN(CC)CCNC(=O)CS(=O)Cc1nc(-c2ccccc2Cl)oc1C (stereo not drawn)
    0.82 | -0.03
COCCn1c(=NC(=O)CSCC(=O)N2CCOCC2)sc2cc(C)ccc21
    0.14 | 0.29
CCc1ccccc1N1CN(Cc2cccnc2)CNC1=S
    1.8 | 1.5
O=C(Nc1nc(=O)c2ccccc2s1)c1ccc(F)cc1
    5.8* | 0.89*
O=C(NCCc1c[nH]c2ccccc12)C1CCCN(S(=O)(=O)c2ccccc2)C1 (stereo not drawn)
    0.46 | -0.64

Continued.
KCNQ2 pot	KCNQ2 pot baseline	SMILES
0.69	-1.1	COc1ccccc1N(CC(=O)NCC1CCCO1)C(=O)CCC(=O)Nc1nccs1 (stereo not drawn)
2.5	-0.09	Cc1cccc(Nc2nc(N)nc(-c3oc4ccccc4c3C)n2)c1
0.22	-0.61	COc1ccc(C2C(C(=O)O)c3ccccc3C(=O)N2Cc2ccco2)cc1 (stereo not drawn)
0.89	-0.22	CCC(C)c1ccc(NC(=O)N2CCN(C(=O)C3CCCO3)CC2)cc1 (stereo not drawn)
0.2	0.18	Nc1c(-c2ccccc2)c(CSc2nc3ccccc3[nH]2)nn1-c1cccc(C(=O)O)c1
0.18	0.46	CCCCn1c(=O)[nH]c(=O)c2c1nc(-c1ccc(C)c([N+](=O)[O-])c1)n2CC
0.01	-0.12	Cc1ccc(N2CC(C(=O)Nc3c(C)n(C)n(-c4ccccc4)c3=O)CC2=O)cc1 (stereo not drawn)
5.9*	0.06*	C/C(=N\Nc1nncc2ccccc12)c1ccc(C(C)(C)C)cc1
2	-3	O=C(NCCN1CCOCC1)C1CCN(c2ncnc3c2sc2cccc(F)c23)CC1
1.8	1.9	C/C(=N\NC(=O)C(O)c1ccccc1)c1ccc(Cl)s1 (stereo not drawn)
0.01	-0.97	CN(Cc1nc(Cc2cccc(C(F)(F)F)c2)no1)C1CC(C)(C)NC(C)(C)C1
1.1	0.3	Cc1ccsc1CNCC(O)c1ccccc1 (stereo not drawn)
0.01	0.17	Cc1ccc(SCCNC(=O)CN(c2ccc3c(c2)OCO3)S(C)(=O)=O)cc1
0.85	3	Cc1cc(=O)oc2cc(OC(C)C(=O)NCCc3ccc(S(N)(=O)=O)cc3)ccc12 (stereo not drawn)
0.32	0.25	COc1cccc(OC)c1C(=O)OCC(=O)N(C)c1ccccc1
2.3	0.74	Cc1cc(C)nc(SSc2nc(C)cc(C)n2)n1
0.83	0.25	CN1CCN(C(=O)C23CC4CC(CC(C4)C2)C3)CC1
0.11	0.03	O=C(O)c1ccc2c(=O)n3c(nc2c1)/C(=C/c1ccc(OC(F)F)cc1OC(F)F)CC3
0.28	-0.75	c1ccc2oc(-c3ccc4nc[nH]c4c3)nc2c1
0.5	-2.1	Cc1cc(-c2n[nH]c(=S)n2/N=C/c2c[nH]c3ccccc23)n[nH]1
0.45	1.1	O=C(CCCN1C(=O)c2ccccc2C1=O)Nc1ccc(S(=O)(=O)N2CCOCC2)cc1
0.8	1.4	COc1ccc(CCC(=O)Nc2ccc(C)c(S(=O)(=O)N(C)C)c2)cc1OC
1.8	0.04	O=C(COC(=O)c1nn(-c2ccccc2)c(=O)c2ccccc12)NC1CCS(=O)(=O)C1 (stereo not drawn)
2.4	0.11	CSc1nc(C)c2c(n1)N(c1ccc(O)cc1)CC2
0.53	-0.17	CCOc1ccc(NC(=O)c2ccccc2OCC(=O)c2ccccc2)cc1
0.4	0.85	COc1ccc(CC(C)N2CCN(c3ccccc3OC)CC2)cc1OC (stereo not drawn)
1.4	-0.63	COc1cc2c(cc1OC)CN(c1ccc(C(F)(F)F)cn1)CC2
0.79	0.84	COc1ccc(-c2csc(Nc3ccc(S(=O)(=O)Nc4cc(OC)nc(OC)n4)cc3)n2)cc1
2.9	1	COc1ccc(NC(=S)N(CCC(C)C)C2CCN(C(C)C)CC2)cc1Cl
0.77	0.36	COCCN(Cc1ccccc1)C(=O)c1ccc2c(=O)n3c(nc2c1)CCC3
0.37	-1.4	CCCCCC(=O)Nc1ccc(C(=O)COC(=O)Cn2cnc3c2c(=O)n(C)c(=O)n3C)cc1
0.06	0.62	Cc1ccc(OCC(=O)Nc2nnc(S(=O)(=O)N3CCC(C)CC3)s2)cc1
2.4	0.15	CC1CCc2c(sc(NC(=O)CCCn3cnc([N+](=O)[O-])n3)c2C(N)=O)C1 (stereo not drawn)
0.2	0.25	COc1ccc(-c2cc(C(=O)N3CCN(c4ccccc4)CC3)no2)cc1
0.01	0.82	CC(=O)c1c(C)[nH]c(C(=O)OCC(=O)Nc2cc(Cl)ccc2[N+](=O)[O-])c1C
5.2	0.11	Nc1ncccc1OCc1ccc(Br)cc1
0.99	-1.4	O=C(COc1ccc(S(=O)(=O)NC2CCCCC2)cc1)NCc1ccccn1
0.51	-0.42	CN1C(=O)NC(c2ccccc2)C2=C1CN(c1ccc3ccccc3c1)C2=O (stereo not drawn)
0.81	-1.3	CCn1cc(C2=NOC(C(=O)Nc3ccc4c(c3)OCO4)C2)c(C)n1 (stereo not drawn)
2.3	-0.69	CC(C)(C)c1ccc(-c2noc(CNC(=O)c3ccco3)n2)cc1
1	-0.64	C=CCn1c(COc2ccc(Cl)cc2)nnc1SCC(=O)N/N=C/c1cccc(O)c1
0.04	2.2	Cn1c(N)c(C(=O)COC(=O)Cc2ccsc2)c(=O)n(C)c1=O
0.45	0.62	CCOc1ccccc1C1C(C(=O)Nc2ccccc2OC)=C(C)Nc2nnnn21 (stereo not drawn)
1.3	0.81	CN1CCN(C(=O)/C(=C/c2cn(S(=O)(=O)N(C)C)c3ccccc23)NC(=O)c2ccccc2Cl)CC1
0.68	1	CCOC(=O)N1CCN(S(=O)(=O)c2ccc(C(=O)Nc3nc4ccc(F)cc4s3)cc2)CC1
0.36	-0.82	O=C(NCCc1ccc(Cl)cc1)C1CCN(S(=O)(=O)c2ccc(Br)s2)CC1
0.09	-1.4	CC(=O)Nc1ccc(NC(=O)CN(c2cccc(C)c2)S(C)(=O)=O)cc1
0.02	-0.01	CCOC(=O)c1cc(-c2ccc([N+](=O)[O-])cc2)nc2c1c(=O)[nH]c(=O)n2Cc1ccccc1
0.05	-1.3	Cc1nn(C)cc1S(=O)(=O)N1CCN(Cc2cccc(Cl)c2)CC1
1.1	-0.73	COc1ccc(NC(=O)c2ccccc2Cl)cc1NC(=O)CN1CCOCC1
0.04	1.1	CC(NC(=S)Nc1ccccc1Cl)C(c1cccs1)N1CCCC1 (stereo not drawn)
0.24	-1.7	Cc1cc(C)n(C(=O)CN(C)S(=O)(=O)c2ccc([N+](=O)[O-])cc2)n1
0.87	0.88	COc1ccc(C(=O)Nc2ccc3c(c2)nc(CCNC(C)=O)n3C)cc1
1.5	0.26	COc1ccc(CCN(C)C2CCCN(S(=O)(=O)N(C)C)C2)cc1OC (stereo not drawn)
0.01	3.5	OCc1nc2ccccc2n1CC(O)Cn1ccc2ccccc21 (stereo not drawn)
0.92	0.05	CC(C)Cc1ccc(CN2CCCC(NC(=O)Cn3cnnn3)C2)cc1 (stereo not drawn)

Other records
KCNQ2 pot	KCNQ2 pot baseline	SMILES
1.6	-0.01	O=c1c(-c2ccc(O)cc2)coc2cc(OC3OC(CO)C(O)C(O)C3O)cc(O)c12 (stereo not drawn)
0.28	0.09	COc1ccc(OCC(O)CNCc2ccco2)cc1 (stereo not drawn)
0.88	-0.75	CN1C[C@@H]2C[C@@H](c3ccc(C#CC(C)(C)O)s3)N3CCC[C@@]23C1=O
1.1	0.23	O=C(c1cccc(F)c1)N1CCN(C2CCCCC2)CC1
0.98	-0.66	COc1ccc(CC(=O)Nc2ccc(C(=O)NC(C)(C)C)cc2)cc1
0.62	-0.23	O=C(c1ccc(Cn2cc(Cl)cn2)o1)N1CCN(Cc2ccc3c(c2)OCO3)CC1
0.96	-1.1	Cc1ccnc(NC(=O)CCC(=O)c2cc(C)sc2C)c1
2	0.56	CC(CN1CCN(C)CC1)OC(=O)c1ccc(F)cc1 (stereo not drawn)
0.81	2.3	Cc1oc2cc3oc(=O)c4c(c3cc2c1C)CCC4
0.27	0.23	Cc1cc(C)n2nc(CNS(=O)(=O)c3ccc(F)c(C)c3)nc2n1
1.3	-2.2	C=CCn1c(SCC#N)nc2ccccc2c1=O
0.39	0.04	O=C(Nc1ccc2c(c1)C(=O)OC2)c1ccc(Cl)cc1Cl
0.11	-0.22	CC(=O)c1sc(-c2ccccc2)cc1NS(=O)(=O)c1ccc(C)cc1
1.8	0.89	CCCn1cnc2cc(NC(=O)c3ccco3)ccc21
0.99	-2.9	COc1ccc(C(=O)NN/C(=N/S(=O)(=O)c2ccc(C)cc2)c2ccccc2)cc1
0.7	0.67	COc1ccc(-c2cc(-c3ccc(OC)cc3)c(C#N)c(SC)n2)cc1
0.81	-1.6	COc1ccc(-c2csc(Nc3ccc(S(=O)(=O)Nc4cc(C)on4)cc3)n2)cc1
0.27	-1.2	COc1cccc(NC(=O)[C@@H]2CCCN2C(=O)C2CCN(S(=O)(=O)c3ccc(C)cc3)CC2)c1
0.01	0.86	N#CCCCCN1c2cccc3cccc(c23)S1(=O)=O
0.05	0.88	CCOc1cccc(-c2nn(-c3ccccc3)cc2/C=C(/C#N)C(=O)NCCCn2ccnc2)c1
0.03	0.75	COc1ccc(-c2oc(NC(C)=O)c(C#N)c2-c2ccc(OC)cc2)cc1
0.74	-0.93	Nc1nc(SCC(=O)NCCN2CCOCC2)nc2sc3c(c12)CCC3
0.87	0.54	CCC1Oc2ccccc2N(CC(=O)NCc2ccco2)C1=O (stereo not drawn)
0.98&1.3	0.12&-0.24	Cc1ccc(-c2cn(-c3ccccc3)c3[n+]2CCCS3)cc1
0.14	-0.85	Cn1nnnc1SCC(=O)Nc1cc(C(F)(F)F)ccc1N1CCOCC1
0.06	1.2	CCC(=O)NC1=C(NC(C)c2ccccc2)C(=O)c2ccccc2C1=O (stereo not drawn)
0.49	-0.17	COc1cccc(N2CCCn3c2nc2c3c(=O)n(CCN3CCOCC3)c(=O)n2C)c1
0.32	2.7	CCOC(=O)c1ccccc1C(=O)N1CCOCCOCCOCC1
0.63	-0.07	Cc1cc2oc(=O)cc(CN3CCOCC3)c2c(C)c1Cl
0.29	0.83	Cc1cccc(NC(=O)N2CCc3ccccc3C2)c1C
0.78	1.3	CCCCOc1ccc(C(=O)N/C(=C/C=C/c2ccccc2)C(=O)NCCCO)cc1
